# Screens (PubChem)
# Polio RdRp inh = poliovirus RdRp elongation inhibitors, primary screen, biochemical, fluorescence polarization, total intensity | Genome polyprotein (Poliovirus type 1 (strain Mahoney)), P03300 | poliovirus polymerase elongation; stronger effect = lower value | % elongation, % (compound at 16.7 µg/mL) | hit rate 0.66% among 150,000 | AID 588519, 2011; in the data active means % elongation below about 90%; further: some results filed as inactive read as strong as hits
# Target sequence (P03300 1749-2209 limits assumed): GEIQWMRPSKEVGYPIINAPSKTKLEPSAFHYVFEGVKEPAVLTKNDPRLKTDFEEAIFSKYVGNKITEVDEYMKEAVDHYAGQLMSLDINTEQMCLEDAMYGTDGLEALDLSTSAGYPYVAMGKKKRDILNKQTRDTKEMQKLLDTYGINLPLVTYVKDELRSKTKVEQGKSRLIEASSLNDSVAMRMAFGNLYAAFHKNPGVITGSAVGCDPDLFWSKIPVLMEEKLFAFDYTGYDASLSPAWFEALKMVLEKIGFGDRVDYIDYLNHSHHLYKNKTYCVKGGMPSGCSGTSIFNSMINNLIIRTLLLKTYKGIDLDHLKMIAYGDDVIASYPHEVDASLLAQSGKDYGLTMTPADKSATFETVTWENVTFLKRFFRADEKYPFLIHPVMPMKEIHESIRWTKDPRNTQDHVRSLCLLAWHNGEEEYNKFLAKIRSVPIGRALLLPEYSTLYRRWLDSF
# Polio RdRp inh intensity = recorded beside Polio RdRp inh, whose call it bears; % elongation; measured here: total intensity read-out; formula for this scale not given here;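 total fluorescence in place of polarization; lower means less elongation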
# The depositor's hits bear a star. A portion of the library (hit frequency here may not be typical).
SMILES,Polio RdRp inh,Polio RdRp inh intensity
CCOc1ccccc1CNC(=O)c1cccn1-c1nnc(N2CCCCC2)s1,105,92
Cc1ccc(Cn2cccc2C2=NC(C)(C)CO2)cc1,108,109
COc1ccc(CCC(=O)NCc2nc3cccnc3n2Cc2ccc(OC)cc2)cc1,107,113
CN(C)C1(CNC(=O)COc2ccc(C(C)(C)C)cc2)CCCCC1,109,110
CCc1cccc(C)c1NC(=O)c1cnn(-c2ccc(OC)cc2)c1C1CCN(C(=O)OC(C)(C)C)CC1,113,106
CN(C)c1ccc(CNC(=O)CCCN2C(=O)c3cccnc3Oc3ccc(Cl)cc32)cc1,113,112
Cc1ccc(-n2nc(CO)c(C(=O)NCCc3ccccc3)n2)cc1,106,112
Cc1ccccc1Cn1c(=O)n(CCC(=O)NCc2ccco2)c(=O)c2sccc21,112,115
COc1cc(-c2nc(S(=O)(=O)c3ccc(Br)cc3)c(N3CCOCC3)o2)cc(OC)c1OC,105,107
Cc1cc(C)c(S(=O)(=O)Nc2ccc(-c3ccc(N4CCCCCC4)nn3)cc2)c(C)c1,108,107
Cc1ccc(-c2nn(CC(=O)NC3CCCC3)c3c2cnc2ccccc23)cc1,108,101
CCOc1ccc(Nc2nnc(-n3nc(C)cc3C)c3ccccc23)cc1,101,99
Cc1cc(NC(=O)CCNS(=O)(=O)c2ccc3c(c2)oc(=O)n3C)ccc1Br,99,107
Cc1ccc(NC(=O)N2CCN(c3ccc(Cl)c(Cl)c3)CC2)cc1,118,114
Cc1cc(-c2nc3ncccc3o2)ccc1NC(=O)COc1ccccc1C,110,115
COc1ccc(-c2cc(C(=O)N3CCN(c4ccccc4)CC3)no2)cc1,102,100
CCN(CC)C(=O)c1ccc(NC(=O)COc2ccc(-c3nn(C)c(=O)c4ccccc34)cc2)cc1,105,108
CCOc1ccccc1NC(=O)C1CCN(S(=O)(=O)c2ccc3c(c2)CC(C)N3C(C)=O)CC1 (stereo not given),106,111
O=C(c1ccc(CSc2nc3ccncc3n2Cc2cccc(F)c2)cc1)N1CCCCC1,107,105
CC1=C(c2ccc(C)cc2)S(=O)(=O)N(Cc2ccc(C(=O)NCc3ccccc3F)cc2)C1=O,102,109
COc1cc(OC)cc(-n2c(=O)c3sccc3n(Cc3ccc(F)cc3)c2=O)c1,96,97
Cc1cc(C)nc(-n2nc(C)c3c2N(Cc2ccccc2F)C(=O)CC3c2ccc(Cl)cc2)n1 (stereo not given),112,104
CCOC(=O)c1cc(-c2ccc(F)cc2)n(CCC(=O)NCc2ccccc2OC)c1C,115,117
CCc1ccc(NC(=O)c2sc3nc(C)c(Cl)c(C)c3c2NC(=O)c2ccccc2OC)cc1,107,103
CCOC(=O)CSc1nc(-c2ccccc2)cc(C(F)(F)F)c1C#N,106,110

# Whole records, quoted from the list. Order of values: Polio RdRp inh, Polio RdRp inh intensity
# `Cc1ccc(-n2nc(CO)c(C(=O)NCCc3ccccc3)n2)cc1` in the list: 106, 112
# `CCOc1ccccc1NC(=O)C1CCN(S(=O)(=O)c2ccc3c(c2)CC(C)N3C(C)=O)CC1` (stereo not given) in the list: 106, 111
# `CCN(CC)C(=O)c1ccc(NC(=O)COc2ccc(-c3nn(C)c(=O)c4ccccc34)cc2)cc1` in the list: 105, 108
# `Cc1cc(NC(=O)CCNS(=O)(=O)c2ccc3c(c2)oc(=O)n3C)ccc1Br` in the list: 99, 107
# `COc1ccc(-c2cc(C(=O)N3CCN(c4ccccc4)CC3)no2)cc1` in the list: 102, 100

# The main list resumes; the three compounds before the break are reprinted first.
SMILES,Polio RdRp inh,Polio RdRp inh intensity
CCOC(=O)c1cc(-c2ccc(F)cc2)n(CCC(=O)NCc2ccccc2OC)c1C,115,117
CCc1ccc(NC(=O)c2sc3nc(C)c(Cl)c(C)c3c2NC(=O)c2ccccc2OC)cc1,107,103
CCOC(=O)CSc1nc(-c2ccccc2)cc(C(F)(F)F)c1C#N,106,110
CCc1cccc(NC(=O)Nc2csc3c2CCCC3)c1,114,105
O=C(CCCCn1c(=O)c2ccccc2n(CC(=O)Nc2cccc(F)c2)c1=O)NCCc1ccccc1,108,109
Cn1c(=O)oc2cc(S(=O)(=O)NC(Cc3ccccc3)C(=O)Nc3ccc(F)c(Cl)c3)ccc21 (stereo not given),106,107
CCOc1ccccc1NC(=O)c1sc2nc3c(cc2c1N)CN(Cc1ccccc1)CC3,107,112
Cc1cccc(NC(=O)c2ccc(CN3CC(=O)N4CCCCC4C3=O)cc2)c1C (stereo not given),104,106
CCc1ccc(NC(=O)C2CCN(S(=O)(=O)c3c(C)noc3/C=C\c3ccc(OC)cc3)CC2)cc1,110,111
CCC(=O)Nc1sc2c(c1C(=O)Nc1ccc(Br)cc1)CCCCC2,103,101
Cc1ccc(/C=C/C(=O)Nc2ccccc2C(N)=O)o1,107,110
O=C(Nc1ccc(F)cc1)Nc1csc2c1CCCC2,109,110
O=C(CN(CCc1ccccc1)S(=O)(=O)c1ccc(Br)cc1)NCc1ccc(Cl)cc1,101,103
CC1=C(c2ccc(C)cc2)S(=O)(=O)N(Cc2ccc(C(=O)Nc3ccccc3C)cc2)C1=O,111,111
Cc1ccc(C(=O)Nc2ccc(S(=O)(=O)Nc3onc(C)c3C)cc2)cc1,99,104
Cc1cccc(-c2noc(-c3cccnc3NCc3ccc(Cl)cc3)n2)c1,110,114
CC1CCCN(S(=O)(=O)c2cc(C(=O)NCCc3ccccc3)n(C)c2)C1 (stereo not given),102,103
CCc1ccccc1N(CC)C(=O)c1c(C)oc2ncn(C)c(=O)c12,108,111
COCCNC(=O)c1ccc(-n2c(-c3ccccc3)cc3c2CCCCC3)cc1,110,96
Cc1cc2oc(=O)c(CC(=O)NCCc3ccccc3F)c(C)c2c2occ(C(C)(C)C)c12,111,109
CCOc1ccc(-n2c(CCC(=O)O)ccc2-c2ccc(Br)cc2)cc1,104,109
CCN(CC)S(=O)(=O)c1ccc2c(c1)N(CC(=O)N1CCN(c3cccc(C)c3)C(C)C1)C(=O)CO2 (stereo not given),106,99
CC1=C(C(=O)Nc2ccccc2)C(c2cccn2C)n2ncnc2N1 (stereo not given),105,111
C=Cc1ccc(CSc2nc(-c3ccc(OC)cc3)nc3c2Cc2c(CO)cnc(C)c2O3)cc1,112,113
COc1ccc(NC(=O)CCc2c(C)nc3nc(CNC(=O)OC(C)(C)C)nn3c2C)cc1OC,107,108
CCC(=O)C1=C(c2cccc([N+](=O)[O-])c2)N(C(=O)CC)n2c(nnc2-c2ccccc2)S1,116,105
Cc1ccccc1OCc1nc2c3cnn(-c4ccccc4F)c3ncn2n1,117,120
CCCc1c(C(=O)OCC)nnc2c(-c3ccccc3)c(C)nn12,104,107

# Going on with the list:
SMILES,Polio RdRp inh,Polio RdRp inh intensity
Cc1ccc(C)c(N2CCN(S(=O)(=O)c3ccc4oc(=O)c5ncn(C)c5c4c3)CC2)c1,106,107
COc1ccc(Cn2c(SCC(=O)NCc3ccc(Cl)cc3)nc3ccsc3c2=O)cc1,106,116
COc1ccc(C(=O)COC(=O)C(Cc2c[nH]c3ccccc23)NC(=O)c2ccc(C(C)(C)C)cc2)cc1 (stereo not given),100,103
CC(C)c1nn2c(=O)cc(COC(=O)c3ccc(NC(=O)C4CCCCC4)cc3)nc2s1,104,109
CS(=O)(=O)c1ncc(N(Cc2ccco2)Cc2ccco2)c(C(=O)Nc2ccccc2Br)n1,109,106
Cc1ccc(-n2c(=O)[nH]c3ccc(Br)cc3c2=O)cc1,106,110
COc1ccc(NC(=O)Cn2c(=O)c3cc(Cl)ccc3n3nncc23)cc1,108,110
Cc1ccc(NC(=O)CN2C(=O)CSc3ccc(S(=O)(=O)N(C)C)cc32)cc1C,106,119
CC1=C(c2ccc(C)c(C)c2)S(=O)(=O)N=C1N1CCC(C(=O)N2CCC(C(N)=O)CC2)CC1,113,113
CC(C)CCNC(=O)CN1C(=O)CSc2ccc(S(=O)(=O)N3CCC(C)CC3)cc21,109,108
CCc1ccc(NC(=O)c2sc3ncnc(N(C)C4CCCCC4)c3c2C)cc1,105,111
CCn1cc(C(=O)NCc2ccccc2OC)c(=O)c2cc(S(=O)(=O)N3CCCCC3)ccc21,98,99
COCCOC(=O)c1c(-c2ccccc2)c(-c2ccccc2)nn(C)c1=O,103,108
CCCOc1ccc(C(=O)Nc2ccc(NC(=O)c3cccc(Cl)c3)cc2)cc1,107,114
O=C(NCc1nc2ccccc2n1Cc1ccccc1Cl)c1ccccc1,110,113
Cc1ccc(OCc2nc(-c3ccc(C(=O)N4CCN(c5ccccc5)CC4)cc3)oc2C)cc1,102,108
CC1=C(C(=O)Nc2cccnc2)C(c2ccc(F)cc2)n2nc(SCc3ccccc3F)nc2N1 (stereo not given),106,106
NC(=O)CSc1nc2ccc(NC(=O)COc3ccccc3Cl)cc2s1,106,112
CC(C)c1ccc2c(c1)NC(c1ccc(F)cc1)=NC(c1cccs1)=N2,102,100
COc1cc(OC)cc(C(=O)Nc2ccc3nc4c(c(Nc5ccc(OC)c(OC)c5)c3c2)CCCC4)c1,96,92
CC(=O)N1CCCC1c1nc2ccccc2n1Cc1ccccc1C (stereo not given),112,111
COc1ccc(-c2nn3c(-c4ccc(C)cc4)nnc3c3ccccc23)cc1,108,113
Cc1ccc(N2CCN(C(=O)c3noc4c3COc3ccc(C)cc3-4)CC2)c(C)c1,103,106
Cc1cccc(-c2nc3c(c(SCc4ccccc4Cl)n2)Cc2c(CO)cnc(C)c2O3)c1,103,107
CCOC(=O)c1cc(-c2ccc(F)cc2)n(CCC(=O)NCCc2ccc(C)cc2)c1C,108,115

# New compounds follow.
SMILES,Polio RdRp inh,Polio RdRp inh intensity
COc1cc2nc(SCc3ccc(Cl)cc3)n3nc(CCn4nc(C)cc4C)nc3c2cc1OC,103,106
COCCNC(=O)CCc1c(C)nc2c(-c3ccc(F)cc3)c(C)nn2c1C,102,102
Cc1ccc(OCCSc2nc3ccc(NC(=O)COc4ccc(F)cc4)cc3s2)cc1,107,114
O=C(CSc1n[nH]c(-c2ccccc2Cl)n1)NCCc1ccccc1,105,110
COc1ccc2c(c1)c1c(c(=O)n(-c3ccccc3C)c(=O)n1CC(N)=O)n2C,105,110
Fc1ccc(CNc2nc(-c3ccc(Cl)cc3)cc(C(F)(F)F)n2)cc1,100,102
COc1ccc(/C=C/C(=O)Nc2ccc(Cl)c(Cl)c2)cc1,107,115
COc1cc(C(=O)NCCS(=O)(=O)N2CCN(c3ccccc3)CC2)cc(OC)c1OC,106,105
COc1ccc(-c2cn3c(n2)sc2cc(C(=O)Nc4cc(Cl)ccc4C)ccc23)cc1,112,112
Cc1ccc(C)c(OCCCn2c(-c3ccc(Cl)cc3)nc3ccccc3c2=O)c1,105,107
CCOc1ccc(CN2C(=O)C(=O)c3cccc(C)c32)cc1OC,108,104
CC(=O)N1CCOc2cc(S(=O)(=O)NCc3ccc(F)cc3)c(C)cc21,109,109
COc1cccc(NC(=O)CSc2nc(=O)[nH]c3c2CCCC3)c1,100,104
CC1CCN(S(=O)(=O)c2ccc3nc(Nc4ccc(C#N)cc4)ccc3c2)CC1,108,108
COc1cccc(-c2nc3c(C#N)c[nH]n3c2NC2CCCCC2)c1OC,107,106
CCOc1ccc(C(=O)Nc2cc(-c3cn4cccnc4n3)ccc2C)cc1OCC,107,112
CCCC1=Nc2cc(C(=O)NC3CCCC3)ccc2Sc2ccc(C)cc21,110,107
CCOC(=O)c1noc2ncnc(N3CCC(C)CC3)c12,105,107
O=C(c1ccc([N+](=O)[O-])cc1)N1c2ncnn2C2(CCCCC2)[C@@H]2CCCC[C@@H]21,105,104
COc1cccc(CNC(=O)C2CCC(CNS(=O)(=O)c3ccc(Br)s3)CC2)c1 (stereo not given),107,109
CCCN(CCC)CCNC(=O)Cn1ncc2c([nH]c3ccc(C)cc32)c1=O,114,110
O=C(NCc1ccccc1)c1ccc(CSc2nc3cccnc3n2Cc2cccc(F)c2)cc1,113,112
COc1cccc(-c2nc(SCC(=O)NC3CCCC3)c(-c3ccc(C)cc3)[nH]2)c1,115,112
Cc1ccccc1OCC(=O)Nc1ccc(OCc2cc(=O)n3ccsc3n2)cc1,112,114
COc1cc(C(=O)N2CCC(c3nc4ccccc4s3)CC2)cc(OC)c1OC,110,114

# (more compounds)
SMILES,Polio RdRp inh,Polio RdRp inh intensity
COc1ccc(C(=O)Nc2ccc3nc(SCC(=O)N4CCc5ccccc54)sc3c2)cc1,104,101
Cc1cc(C)cc(OCC(=O)Nc2ccc(-c3nc4ncccc4o3)cc2C)c1,106,104
COc1cc(Nc2ncc3c(n2)CCN(Cc2cc(Br)cs2)C3)cc(OC)c1,109,112
COc1ccc(NC(=O)CCn2c(-c3ccc(F)cc3)cc(C(C)=O)c2C)c(OC)c1,105,96
Cc1ccc(OC(=O)CSc2nnc(-c3cccs3)o2)c(C)c1,101,107
COC(=O)c1sc2ccccc2c1S(=O)(=O)N1CCN(c2ccc(C(C)=O)cc2)CC1,107,110
Cc1nc2ccc(S(=O)(=O)NCC(=O)Nc3ccc(F)cc3F)cc2s1,108,103
CCOC(=O)N1CCc2c(sc(NCc3cccs3)c2C(=O)Nc2cc(Cl)ccc2OC)C1,120,138
CC(C)OC(=O)c1cccc(NC(=O)Cn2nnc3sc4c(c3c2=O)CCCC4)c1,105,112
Cc1ccc2nc(/C(C#N)=C/c3ccccc3F)[nH]c2c1,101,102
COc1ccc2[nH]cc(S(=O)(=O)c3ccc(C)c(C)c3)c(=O)c2c1,101,103
Cc1ccc(C)c(N2CCN(C(=O)CCCCCn3c(=O)[nH]c4ccccc4c3=O)CC2)c1,100,106
CC(C)c1ccc(-c2noc(SCC(=O)N3CCN(c4ccccc4F)CC3)n2)cc1,106,105
Cc1ccccc1CN1C(=O)c2ccccc2Sc2ccc(C(=O)N3CCCC3)cc21,106,104
Cc1cccc2sc(NC(=O)c3cccn(Cc4ccccc4)c3=O)nc12,107,113
Cc1ccc(NC(=O)C2CCN(c3cc(C)nc4c(-c5ccc(Cl)cc5)c(C)nn34)CC2)c(C)c1,109,108

# 3 entries from above, with values under each structure:
# The line under a structure holds: Polio RdRp inh, Polio RdRp inh intensity
- CC(C)c1ccc(-c2noc(SCC(=O)N3CCN(c4ccccc4F)CC3)n2)cc1
 : 106, 105
- COc1cc(Nc2ncc3c(n2)CCN(Cc2cc(Br)cs2)C3)cc(OC)c1
 : 109, 112
- Cc1ccc(NC(=O)C2CCN(c3cc(C)nc4c(-c5ccc(Cl)cc5)c(C)nn34)CC2)c(C)c1
 : 109, 108
